gsp ag – activates gsp, the McCune-Albright syndrome mutation. gsp mutant cells, cAMP HTRF, 30 min; control for the full effect not named in the record. Potency, µM (doses to about 76.9 µM), without a hit: at the top dose activation (cAMP increase), actives largely listed as activators. 0.13% of 340,000 active; active = well fitted activation curve with a large enough effect; inconclusive = small, poorly fitted or top-dose-only effect, or another doubt; inactive = no such curve, though single readings can be large or run the other way; cell line not stated here;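 note: phosphodiesterase inhibitor Ro 20-1724 added with compounds to block cAMP breakdown; potency is the fitted concentration of half-maximal effect; nearly all actives have a fitted effect of over 60% in size; about a fifth of the inactives were tested at one dose only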
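Cells stably selected in G418 were plated at 2000/well, grown 16-24 hr, then given compounds in DMSO with the PDE inhibitor […] (300 uM solution added) for 30 min at 37C; cAMP was read by HTRF.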
ClpP mod – qHTS Assay for Activators of ClpP | Potency, µM (highest dose often 57.5 µM), for inactives: top-dose activity change, negative = active | purified B. subtilis ClpP, FRET peptide cleavage, 20 min | 1.9% of 340,000 active; active = well fitted falling curve with a large enough effect; inconclusive = small, poorly fitted or top-dose-only effect; inactive = no such curve, though single readings can be large or run the other way; note: potency is the fitted concentration of half-maximal effect; the source files actives as falling curves though it sought activators and does not explain the sign; nearly all actives have a fitted effect of over 65% in size; many hits overshoot -100%
Target sequence (P80244 whole entry, looked up): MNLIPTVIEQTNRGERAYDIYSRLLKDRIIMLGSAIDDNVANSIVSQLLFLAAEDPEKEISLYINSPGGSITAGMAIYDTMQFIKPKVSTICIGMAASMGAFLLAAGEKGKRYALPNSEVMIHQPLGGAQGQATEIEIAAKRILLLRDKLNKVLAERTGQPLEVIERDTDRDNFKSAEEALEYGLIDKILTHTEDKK
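FRET quenching reversal measured ClpP activation: 10 microg/mL B. subtilis ClpP at pH 8 with the FRET-FV decapeptide, read at 430 nm after 320 nm excitation. The 20-min minus 0-min signal was scaled between DMSO/no-enzyme wells and ADEP (5.8 microM final).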
Sfp inh – Sfp phosphopantetheinyl transferase inhibition. 3.5% of 310,000 active. Biochemical Sfp PPTase activity, qHTS. Potency, µM, for inactives: max response, negative = inhibition, most hits filed as inhibitors; active = well fitted inhibition curve with a large enough effect; inconclusive = small, poorly fitted or top-dose-only effect, or another doubt; inactive = no such curve, though single readings can be large or run the other way;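 note: the enzyme is Sfp with the accession as filed and its product quenches rhodamine fluorescence; potency is the fitted concentration of half-maximal effect; 0% = enzyme reaction without inhibitor and -100% = no enzyme wells; top concentration of the series not given in the record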
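Compounds were incubated with enzyme (final 15 nM) for 15 min at room temperature before substrate addition started the reaction. Fluorescence at 525 nm excitation, 598 nm emission was recorded immediately and after 30 minutes.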
Menin MLL FP FL – displaces fluorescein MLL peptide from human menin; Fluorescence polarization, fluorescein-MLL peptide displacement from menin; FP activity change, % at 61.4 µM; 290,000 tested, under 10 active; AID 1766; inconclusive = falling polarisation curve, or a change in total fluorescence; inactive = total fluorescence flat and polarisation flat or rising; no compound was filed as active; the % refers to the polarisation; negative = inhibition;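 note: % of control where 0% means no effect; inhibitors lower the polarisation; unlabelled MLL peptide was the positive control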
gsp antagonist – antagonists of gsp mutant (McCune-Albright syndrome); AID 624288; Potency, µM (series often up to 76.9 µM), without a hit: at the highest dose activity change, negative = inhibition, usual class: inhibitors; 0.4% of 340,000 active; gsp-mutant cells, cAMP HTRF, 30 min; control for the full effect not named in the record; active = falling curve of any shape with a large fitted effect; inconclusive = falling curve, mostly with a smaller effect; inactive = flat or rising curve; cell line not stated here;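 note: intracellular cAMP measured with PDE inhibitor Ro 20-1724 present during compound exposure; potency is the fitted concentration of half-maximal effect; % is set by controls: 0 for no effect and ±100 for the full control effect; nearly all actives have a fitted effect of over 65% in size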
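HTRF cAMP read-out (cAMP-d2 plus anti-cAMP antibody-K in lysis buffer, 30 min RT). Before lysis, cells are exposed to compounds with […] for 30 min at 37C in DPBS containing Ca/Mg, BSA and Tween 20.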
TRPV1 PAM – potentiators of human vanilloid receptor 1 (TRPV1); TRPV1-expressing cells, Fluo-8 calcium influx, capsaicin EC20 potentiation; host cell line not named in the record; control for the full effect not named in the record; Q8NER1; potentiation, % at 8.33 µM; 0.02% of 320,000 active; AID 540277; active means potentiation above 80%; inconclusive means 30% to 80%; inactive means below 30%; note: 0% is about no effect
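TRPV1-expressing cells were cultured overnight at 35.5C and loaded with Fluo-8 calcium dye for 40 to 90 min at room temperature. After a 10 s baseline, compound was added and calcium influx was read kinetically for 3 min (ex 480/em 520 nm).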
TRPML1 blocker – human mucolipin-1 channel inhibition. Q9GZU1. TRPML1-inducible cells, Ca2+ dye fluorescence, FDSS; hits give low values; inhibition of EC80 agonist-evoked calcium signal. activity change, negative = inhibition, % (test concentration not listed). 0.02% of 390,000 active. AID 624415; in the data active means activity change below about -50%; inconclusive means about -30% to -50%; inactive means above about -30%;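 note: stimulus is agonist 54-4 at its EC80 concentration; % is set by controls: 0 for no effect and ±100 for the full control effect; compound concentration not given in the record; the text of the record puts the active cut at -80%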
Target sequence (Q9GZU1 whole entry, looked up): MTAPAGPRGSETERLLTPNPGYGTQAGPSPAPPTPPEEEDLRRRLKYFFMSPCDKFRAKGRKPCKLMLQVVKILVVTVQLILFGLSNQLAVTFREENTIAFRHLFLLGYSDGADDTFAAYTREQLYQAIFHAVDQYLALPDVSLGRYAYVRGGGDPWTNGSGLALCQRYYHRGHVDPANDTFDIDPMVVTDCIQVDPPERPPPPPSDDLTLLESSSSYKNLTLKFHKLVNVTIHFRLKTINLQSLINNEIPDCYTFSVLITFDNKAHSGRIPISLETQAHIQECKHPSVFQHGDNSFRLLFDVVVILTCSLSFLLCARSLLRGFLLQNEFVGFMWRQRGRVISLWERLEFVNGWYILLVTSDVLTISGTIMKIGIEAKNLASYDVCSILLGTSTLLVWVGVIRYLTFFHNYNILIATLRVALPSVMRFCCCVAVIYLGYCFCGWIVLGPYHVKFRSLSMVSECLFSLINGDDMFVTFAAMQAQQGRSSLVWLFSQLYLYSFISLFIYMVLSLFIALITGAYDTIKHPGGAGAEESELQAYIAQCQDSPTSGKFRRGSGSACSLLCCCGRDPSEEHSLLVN
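TRPML1-DL cells, Tet-induced overnight (~16 h, 37 °C) at 1,500 cells/well, were loaded with Ca8 no-wash dye plus quencher for 45-90 min at room temperature. Compounds were pinned during FDSS kinetic reading; agonist 54-4 at EC80 (4 uM final) then added.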
The depositor's hits bear a star; ? = inconclusive; . = not tested or not shown; & = joins results of further samples; [ ] = remark or other dose.

canonical_smiles | gsp ag | ClpP mod | Sfp inh | Menin MLL FP FL | gsp antagonist | TRPV1 PAM | TRPML1 blocker
CCCCCCN1C[C@@H](O)[C@H](n2cc(COC(=O)c3ccccc3)nn2)C[C@@H]1c1ccc(C)cc1 | -9% | -1.6% | . | . | . | . | -12
COCCN(CCOC)c1nc(N)c2c(N)nc3c(c2c1C#N)CC(=O)N3Cc1ccc(Cl)cc1 | 12%[15.4 µM] | 3.2µM* | -27% | 6.9 | 1% | -7 | 3
N#Cc1cc(C(=O)c2cc(Br)ccc2O)cn(Cc2ccccc2)c1=O | -26% | . | 2% | ? | ? | 16 | 1
CC(=O)c1cnc2nc(SCc3ccc(C)cc3)nn2c1C | 11%[15.4 µM] | -1.5% | 6% | 1.7 | -3% | -3 | -15
CNC(=O)C(NC(=O)c1ccccc1)=C(C)C | 15% | . | 17% | -1.0 | 9% | -4 | 16
O=[N+]([O-])c1ccc(Oc2ncccn2)cc1 | -3%[15.4 µM] | . | . | . | 8% | . | 3
CCCN1C(=O)/C(=C/c2ccc(OCC(=O)OCC)cc2)NC1=S | -1% | -0.9% | 12% | 2.4 | -24% | -9 | 6
c1ccc2c(c1)ccc1nnc(SCc3ccc4c(c3)OCO4)n12 | -2% | -9.4% | -8% | 0.7 | -9% | ? | -15
Cc1ccc(-c2csc(NC(=O)CSc3nc4ccccc4c(=O)n3CCCN(C)C)n2)cc1 | -1%[15.4 µM] | . | 56µM* | 1.3 | . | -5 | -4
CCOC(=O)/C=c1\s/c(=C\c2ccc(C(=O)OC)cc2)c(=O)n1CC(=O)Nc1ccccc1 | -1%[15.4 µM] | 0.9% | -20% | 8.4 | 7% | -4 | 21
COc1ccc(/C=C(/NC(=O)c2ccc([N+](=O)[O-])cc2)C(=O)NC(C)(C)C)cc1 | -6%[15.4 µM] | . | 0% | -5.7 | . | 2 | 7
Cc1ccc(C)c(OCCCC(C)(C)C(=O)O)c1 | . | 0.5% | 16%&35%&32%&15%&30% | 5.1 | -1% | 17 | 23
O=C(NC(Nc1ncccn1)C(=O)c1ccccc1)c1ccccc1 (stereo not drawn) | -25% | 0.2% | 11% | 10 | -3% | 11 | -18
Cc1ccc(CN2CCC(CNC(=O)C3CCCN(c4ncnc5c4nc4n5CCCCC4)C3)CC2)cc1 (stereo not drawn) | 10% | 0.6% | 7% | 4.9 | -8% | -6 | -6
CCn1c2c(c(=N)c3c1CCC3)CCC2 | 0%[15.4 µM] | . | 20% | 1.0 | 7% | -7 | -7
O=S(=O)(Nc1ccccc1F)c1ccc(Cl)nc1 | -12% | -0.7% | . | . | ? | 3 | 3
Cc1ccc(NCc2nnc(SCC(=O)Nc3nnc(C)s3)n2C)cc1 | -15% | 0.0% | 2% | 1.9 | 1% | 0 | 12
Cc1[nH]n(CCC#N)c(=O)c1CC(=O)N1CCN(c2ccccc2)CC1 | -6% | -1.1% | 2% | 1.1 | -1% | -9 | 5
COc1ccc(N2CCN(S(=O)(=O)CCNC(=O)c3cccs3)CC2)cc1 | 19% | 1.4% | . | . | -7% | 7 | -4
C#CCOCCOCCOCCNc1nc(N2CCOCC2)nc(N2CCN(C(=O)[C@H]([C@@H](C)CC)n3cc([C@@H](N)CO)nn3)CC2)n1 | . | -2.3% | 1% | 1.4 | 5% | 20 | 6

Going on with the list:
The line under a structure holds: gsp ag	ClpP mod	Sfp inh	Menin MLL FP FL	gsp antagonist	TRPV1 PAM	TRPML1 blocker
- Cc1ccc(C)c(C(=O)CN2C(=O)NC3(CCCCCC3)C2=O)c1
  -10%	1.8%	.	.	11%	20	-9
- O=C(NCCc1csc(-c2cccnc2)n1)c1cccs1
  -44%[inhibitor]	-14%	13%	1.5	-4%	-3	47
- COC(OC)C12c3ccccc3C(c3ccccc31)C1C(=O)N(c3cccnc3)C(=O)C12 (stereo not drawn)
  6%[15.4 µM]	.	4%	-0.4	-4%	3	5
- COc1cccc(C(=O)O/N=C(\N)c2ccncc2)c1OC
  -1%	-5.1%	5%	2.3	8%	17	-5
- CCOC(=O)c1c(-c2ccc3ccccc3c2)csc1NC(=O)CCCC(=O)O
  -12%[15.4 µM]	-6.5%	.	.	?	-12	-1
- CCC(=O)Nc1ccc(C(=O)CSc2nnc(-c3cccnc3)o2)cc1
  -34%[inhibitor]	-0.6%	8%	1.2	8%	7	30
- Cc1cccc(NC(=O)C(C)Oc2ccc(C)nc2[N+](=O)[O-])c1 (stereo not drawn)
  ?	-0.4%	.	.	-2%	.	-5
- C/C(CC(=O)NCc1ccc(Cl)cc1)=N\NC(=O)COc1ccc(C)cc1Br
  6%	.	15%	.	16%	1	-17
- CCOC(=O)c1nn(-c2ccccc2)c(=O)c(C#N)c1C
  -17%	-3.9%	-12%	3.8	11%	18	6
- Cc1ccc(NC(=O)COC(=O)c2ccc3c(c2)C(=O)N(CCc2ccccc2)C3=O)c(C)c1
  0%	2.0%	6%	5.8	-18%	-4	10
- Cc1csc(NC(=O)CSc2nncs2)n1
  -2%	-5.5%	.	.	7%	10	7
- Cn1c(C(=O)N2CCc3ccccc3C2)cc2oc3ccccc3c21
  2%	?	-13%	4.5	-8%	-7	13
- Cc1ccc(NC(=O)c2ccco2)cc1
  -14%	-1.1%	.	.	.	.	-9
- CCN(CC(=O)NCCc1ccccc1)S(=O)(=O)c1ccccc1
  -1%[15.4 µM]	.	-8%	0.1	11%	-1	-5
- Cc1ccc(NC(=O)CN(C)C(=O)c2cccnc2Nc2cccc(C(F)(F)F)c2)cc1
  -27%	-0.4%	20%	.	-6%	-2	-18
- COc1ccc(C(=O)NC2=NCCS2)c(OC)c1
  -28%	.	9%	-0.5	?	15	-4
- Cc1ccc(S(=O)(=O)N[C@@H](Cc2ccccc2)C(=O)CCl)cc1
  .	-0.2%	0%&-10%	-2.5&1.9	?	3	-3
- O=C(Nc1ccc(Oc2ccccc2)nc1)C1CCCCN1Cc1ccco1 (stereo not drawn)
  ?	-3.5%	-2%	.	7%	-22	-2
- CN(C)S(=O)(=O)c1ccc(N2CCCC2)c(C(=O)NNC(=O)c2ccccc2)c1
  23%	-6.3%	.	.	-5%	5	2
- CCOc1ccc(Br)cc1/C(C)=N\NC1=NCCN1
  0%	-1.3%	4%	3.4	0%[15.4 µM]	6	6

Next part.
The line under a structure holds: gsp ag	ClpP mod	Sfp inh	Menin MLL FP FL	gsp antagonist	TRPV1 PAM	TRPML1 blocker
- O=C(COC(=O)c1cccc(N2C(=O)c3ccccc3C2=O)c1)Nc1ccccc1
  -1%	3.6%	-13%	-0.5	-17%	-3	-7
- COc1ccc(Cn2nnc(C(=O)Nc3ccc(F)cc3)c2N)cc1
  9%	-8.1%	27%	1.1	1%	9	-8
- COc1cccc(NC(=O)CN(C)C(=O)c2cccc(S(=O)(=O)N3CCN(c4ccccc4)CC3)c2)c1
  ?	-3.6%	3%	.	?	5	-4
- COc1ccc(C(=O)NC(=S)Nc2cccc3ncccc23)cc1[N+](=O)[O-]
  21%	1.3%	-17%	.	-15%	-8	8
- Fc1ccc(COc2ccc(-c3nnco3)cc2)cc1
  -7%[15.4 µM]	.	13%	5.0	8%	-7	7
- C/C(=C/C(=O)O)C(=O)Nc1cccc(C(F)(F)F)c1
  -92%[inhibitor]	-1.3%	11%	-0.4	11%	9	3
- CCc1n[nH]c(=S)n1/N=C/c1ccc2c(c1)OCO2
  -3%	2.1%	-8%	2.7	-4%	7	14
- CCc1noc(C)c1C(=O)Nc1nc(-c2ccc(Cl)cc2Cl)c(C)s1
  -47%[inhibitor]	-6.6%	9%	-0.2	4%	-2	9
- COC(=O)c1nc(NC(=O)c2ccc(C(C)(C)C)cc2)n[nH]1
  -3%[15.4 µM]	.	13%	-1.9	.	5	9
- CCOC(=O)c1ccc(N2C(=O)CC(N3CCC(C(=O)OCC)CC3)C2=O)cc1 (stereo not drawn)
  2%	-4.8%	12%	5.2	4%	3	31
- CCCn1nnnc1SCC(=O)NC1CCCC1
  15%[15.4 µM]	.	6%	.	11%	0	-12
- O=C(Nc1nccs1)c1cn(-c2ccccc2)nc1-c1ccccc1
  -7%	-3.6%	11%	3.1	3%[15.4 µM]	9	27
- CC1CC(C)CN(C(=O)COC(=O)c2cccc(S(=O)(=O)N(C)c3ccccc3)c2)C1 (stereo not drawn)
  9%	2.2%	.	.	-22%	-7	-1
- COc1ccc(-c2[nH]ncc2CN(C)Cc2ccccn2)c(OC)c1
  5%[15.4 µM]	1.0%	-9%	1.7	16%	-1	1

Fetched one by one from the list above (5):
The line under a structure holds: gsp ag	ClpP mod	Sfp inh	Menin MLL FP FL	gsp antagonist	TRPV1 PAM	TRPML1 blocker
- CCOC(=O)c1ccc(N2C(=O)CC(N3CCC(C(=O)OCC)CC3)C2=O)cc1 (stereo not drawn)
  2%	-4.8%	12%	5.2	4%	3	31
- CCc1n[nH]c(=S)n1/N=C/c1ccc2c(c1)OCO2
  -3%	2.1%	-8%	2.7	-4%	7	14
- CCCn1nnnc1SCC(=O)NC1CCCC1
  15%[15.4 µM]	.	6%	.	11%	0	-12
- COc1ccc(C(=O)NC(=S)Nc2cccc3ncccc23)cc1[N+](=O)[O-]
  21%	1.3%	-17%	.	-15%	-8	8
- C/C(=C/C(=O)O)C(=O)Nc1cccc(C(F)(F)F)c1
  -92%[inhibitor]	-1.3%	11%	-0.4	11%	9	3

Arranged by value in TRPML1 blocker (falling): 3 of the compounds above
molecule	gsp ag	Sfp inh	Menin MLL FP FL	gsp antagonist	TRPML1 blocker
CCc1n[nH]c(=S)n1/N=C/c1ccc2c(c1)OCO2	-3%	-8%	2.7	-4%	14
C/C(=C/C(=O)O)C(=O)Nc1cccc(C(F)(F)F)c1	-92%[inhibitor]	11%	-0.4	11%	3
COc1ccc(-c2[nH]ncc2CN(C)Cc2ccccn2)c(OC)c1	5%[15.4 µM]	-9%	1.7	16%	1
